VDR inhibitor: Inhibitors of the vitamin D receptor (VDR): qHTS; AID 504847, 2011; actives 0.93% (n = 400,000); VDR-SRC2-3 peptide fluorescence polarization, 2 h; Potency, µM, inactives show max response, negative = inhibition, most hits filed as inhibitors; Vitamin D3 receptor (Homo sapiens), P11473; active means well fitted inhibition curve with a large enough effect; inconclusive means small, poorly fitted or top-dose-only effect, or another doubt; inactive means no such curve, though single readings can be large or run the other way; further: series mostly up to about 120 µM
Target sequence (P11473 whole entry, looked up): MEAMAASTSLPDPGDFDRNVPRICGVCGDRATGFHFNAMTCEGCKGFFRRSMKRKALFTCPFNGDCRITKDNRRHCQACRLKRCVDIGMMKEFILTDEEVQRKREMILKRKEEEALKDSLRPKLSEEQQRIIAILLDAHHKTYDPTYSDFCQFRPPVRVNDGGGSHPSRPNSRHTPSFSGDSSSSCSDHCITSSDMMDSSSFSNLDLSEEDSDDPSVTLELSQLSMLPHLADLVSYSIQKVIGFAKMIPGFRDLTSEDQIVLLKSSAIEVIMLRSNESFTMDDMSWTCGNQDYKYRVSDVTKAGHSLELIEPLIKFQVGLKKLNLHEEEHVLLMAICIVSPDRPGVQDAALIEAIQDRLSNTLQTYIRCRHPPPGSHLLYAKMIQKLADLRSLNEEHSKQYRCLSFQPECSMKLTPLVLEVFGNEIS
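FP read-out; VDR + SRC2-3 coactivator peptide; 23 nl compound by pintool; 2 h RT incubation; reagents held at 4 deg C, protected from light.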
* marks the source's active call; other numbers are inactive results; ? = inconclusive; & = joins results of further samples. On the % scale 0 is the no-effect control and ±100 the full control effect; potency means the concentration at half of the fitted maximal effect. An excerpt; count on the stated rates, not on these rows.

VDR inhibitor | smiles
2% | CC(C)(C)OC(=O)N[C@@H](Cc1c[nH]c2ccccc12)c1nnc(SCC(N)=O)o1
-8% | COc1cc([C@@H]2c3cc4c(cc3[C@@H](O)[C@H]3COC(=O)[C@H]23)OCO4)cc(OC)c1O[Si](C)(C)C(C)(C)C
-22% | COCCN(CC(=O)Nc1ccccc1C(F)(F)F)C(=O)/C=C/c1cc(Cl)c2c(c1)OCO2
-10% | CC(=O)Nc1ccc(NC(=O)CCC(=O)Oc2ccc(C)cc2)cc1
-5% | O=C(Nc1ccccc1)c1nc[nH]c1C(=O)N1CCc2ccccc2C1
-16% | COc1ccc(-c2cc(C(=O)NNC(=S)NC(=O)c3c(-c4ccccc4)noc3C)[nH]n2)cc1
12% | Cc1ccc(CN2CCC(CNC(=O)c3cnn(-c4ccccc4)c3C3CCN(C(=O)OC(C)(C)C)CC3)CC2)cc1
0% | Cc1ccc(S(=O)(=O)N(C)c2ccc(OCC(=O)OCc3c(C)noc3C)cc2)cc1
9% | CC1CCN(S(=O)(=O)c2ccc(N=NC3=C(O)CC(C)(C)CC3=O)cc2)CC1
11% | Cc1ccc(N2C(=O)N(CC(=O)Nc3ccc(C)c(C)c3)C(=O)C2C)cc1 (stereo not given)
-8% | COc1ccc(/C=N/NC(=O)c2ccoc2C)cc1O
7% | CC(C)CC(=O)Nc1ccc(C(=O)Nc2cccc(O)c2)cc1
1% | CCNc1ncc2ncc(=O)n(CCOC)c2n1
9% | Cc1ccc(-n2nc3c(c2NC(=O)c2cccs2)CSC3)cc1
-5% | Cc1nn2c(C)c(C(=O)N3CCN(c4ccccc4)CC3)cnc2c1-c1ccccc1
-16% | CC1CN(C(=O)COC(=O)COc2ccc(C#N)cc2)CC(C)O1 (stereo not given)
0% | O=C(OCC(=O)N1CCCC1)c1ccc(Cl)c([N+](=O)[O-])c1
-3% | Cc1nn2c(=O)cc(COC(=O)c3ccccc3NC(=O)c3cccs3)nc2s1
0% | Cc1cc2c(n1-c1ccc(C(=O)NCCc3ccc(Cl)cc3)cc1)CCCC2
-1% | Cc1cc(C)c2c(-c3ccc(-c4ccc(C(F)(F)F)cc4)cc3)cc(=O)oc2c1
-3% | CC(C)C[C@H]1CNC(=S)N1CC1CCCN1C[C@H](CC(C)C)N1C[C@H](Cc2ccc(O)cc2)N(CC2CCCCCC2)C1=S (stereo not given in full)
? | Cc1cc(OCC(=O)NC2CCCCC2)ccc1Cl
-4% | Oc1cccc(Nc2nc(-c3ccccc3Cl)nc3ccccc23)c1
-2% | CCn1c2ccccc2c2cc(/C=N/NC(=O)c3ccc(O)cc3)ccc21
5% | CN(CC(=O)Nc1cccc(F)c1)C(=O)c1ccc(S(=O)(=O)N2CCCC2)cc1
-2% | Cc1cc(C)c2oc(=O)cc(CN3CCCCC3)c2c1
4% | CC1CCN(S(=O)(=O)N2CCCC(C(=O)NCc3ccccc3Cl)C2)CC1 (stereo not given)
-12% | O=C(/C=C/c1ccccc1)NC(=S)Nc1ccc2c3c(cccc13)CC2
-9% | O=S(=O)(c1ccc(Cl)cc1)N1CCN2CCCC2C1 (stereo not given)
-7% | Cc1ccc(C)c(NC(=O)CCC(=O)N2CCOc3ccccc32)c1
4% | Cc1cccc2sc(N(Cc3cccnc3)C(=O)CCS(=O)(=O)c3ccccc3)nc12
-4% | NC(=O)c1c(NC(=O)Cn2cnc([N+](=O)[O-])n2)sc2c1CCCC2
-8% | CCN(CC)CC(C(=O)N(CC)CC)P(=O)(c1ccccc1)c1ccccc1 (stereo not given)
1% | Cc1ccc(OCCCC(=O)NNC(=O)c2ccncc2)cc1
6% | CSc1ccccc1NC(=O)c1ccc(C)o1
-9% | O=C(C[n+]1ccc(/C=C/c2ccccc2)cc1)c1ccc2c(c1)OCCO2
13% | CC(C)CCNC(=O)COc1ccc(C(=O)c2ccccc2)cc1
4% | CCOC(=O)C(=O)N(Nc1ccccc1C)c1ccccc1C
4% | Cc1cccc(N2CCN(C(=O)c3c(C)oc4nc(C)nc(N5CCCC5)c34)CC2C)c1 (stereo not given)
-2% | COc1cc(/C=N/Nc2ccc(Cl)nn2)cc(OC)c1O
-5% | Cc1nnc2sc(SCC(=O)Nc3ccc(Cl)cc3)nn2c1=O
-6% | c1ccc(CCCCN2CCN=C2Nc2ccccc2)cc1
? | COc1cccc(-c2nc(S(=O)(=O)c3ccc(C)cc3)c(NCc3ccccc3)o2)c1
-7% | Cc1ccc(Cn2c(C3CCCN3c3nc(C)cs3)nc3cc(C(=O)NCCCO)ccc32)cc1 (stereo not given)
-15% | Cc1ccc(S[C@@H](CCN2CC[C@H](C)CCC2=O)c2ccccc2)cc1
14% | CCCCc1nc(Cl)c(C#N)c2c1CCC2
9% | CC(=O)N/C(=C/c1ccc(OS(=O)(=O)c2ccc(C)cc2)cc1)C(=O)NCCO
1% | CC(C)[C@H]1C=C(C(=O)O)O[C@@H](OCc2ccc(CO)cc2)C1
1% | COc1ccc(NC(=S)N2CCCN(Cc3cc(C)ccc3C)C2)cc1
24% | CC(C)CCSc1nc(N)c(C#N)cc1C#N
8% | CCOC(=O)c1cccnc1SCC(=O)Nc1ccc(C)cc1C
9%&-3% | Cc1cc(C)c(Cn2c3ccccc3c3cnn(CC(=O)NCc4ccccn4)c(=O)c32)c(C)c1
? | COc1ccc(NC(=O)CCc2ccccc2)cc1S(=O)(=O)N1CCCCC1
-20% | CN1C(=O)CSC1=S
? | O=C(O/N=C/c1ccc(Cl)cc1)C1CCCCC1
5% | O=[N+]([O-])c1ccc(NCCCNS(=O)(=O)c2ccccc2)cc1

Going on with the list.
VDR inhibitor | smiles
1% | Cc1onc(-c2ccccc2Cl)c1C(=O)Nc1ccccc1N1CCOCC1
-20%&-21% | COc1nc(C#N)nc(N(C)C)n1
-1% | O=C(c1cc(COc2ccc(F)cc2Cl)on1)N1CCCC(OCc2cccnc2)C1 (stereo not given)
12% | COCCCn1cnc2c(c1=O)c1nc3ccccc3nc1n2CCc1ccccc1
-2% | O=C(CCN1C(=O)/C(=C/c2ccccc2F)SC1=S)Nc1ccccn1
-1% | O=C(Nc1ccncc1)C1CCN(S(=O)(=O)c2cccc(C(F)(F)F)c2)CC1
8% | O=C(NCCCN1CCCC1=O)c1ccc(OC(F)(F)F)cc1
-19% | COc1ccccc1C(=O)NCCn1cc(SCC(=O)NCc2ccco2)c2ccccc21
11% | CNc1ccccc1NC(=O)C1CCCN1C(=O)OCc1ccccc1 (stereo not given)
1% | CCCC12CN3CC(C)(CN(C1)C3c1ccc(OC)cc1)C2=O (stereo not given)
? | CCN(CC)c1ccc(N=Cc2ccccc2[N+](=O)[O-])cc1
-4% | CC1(C)NC(=O)N(CC(=O)OCC(=O)c2ccc(F)cc2)C1=O
6% | CCC(C)(C#CCN1CCCCC1)OC(C)=O (stereo not given)
-25% | Cn1c(N)c(C(=O)Nc2ccc3ccccc3c2)sc1=S
13µM* | O=C(O)c1ccc(Cn2cc(/C=C\[N+](=O)[O-])c3ccccc32)o1
-1% | CCc1cc(CNC(=O)c2ccc(OC)c(OC3CCN(C(C)C)CC3)c2)on1
4% | Cc1ccc(S(=O)(=O)NCCCCCC(=O)Nc2nccs2)cc1
-5% | COc1ccc(OCC(=O)Nc2ccc(O)c(-c3nc4ccccc4s3)c2)cc1
18% | Cc1c(C(=O)NCc2ccccc2)cnn1-c1ccccc1
5% | COCCOC(=O)c1[nH]c2c(c1C)C(=O)CC(c1ccc(OC)cc1)C2 (stereo not given)
-14% | Oc1ccc(Br)cc1-c1nc2cnccn2c1NC1CCCCC1
1% | NNC(=O)c1cccnc1Oc1ccccc1
-14% | CC(C)Oc1ccc(S(=O)(=O)N2CCOCC2)cc1NC(=O)C1CCCC1
-29% | CC(C)=CCC/C(C)=C/COc1c2ccoc2cc2oc(=O)ccc12
9% | COc1cccc(-c2nc3n(n2)C(c2ccc4c(c2)OCO4)C(C(N)=O)=C(C)N3)c1 (stereo not given)
1% | COc1ccccc1C(=O)NCCc1csc(-c2ccc(C(F)(F)F)cc2)n1
2% | Cc1ccccc1-n1c(SCc2c(C)noc2C)nnc1-c1c[nH]c2ccccc12
6% | COC1=C(Nc2ccccc2OC)C(=O)c2ccccc2C1=O
19% | COc1cccc(C(=O)Nc2ccc(S(=O)(=O)Nc3onc(C)c3C)cc2)c1
-2% | CC(C)C(OC(=O)CN1C(=O)c2ccccc2C1=O)C(=O)NC1CCCC1 (stereo not given)
-1% | Cc1cc(=O)n(Cc2ccccc2Cl)c2c1c(C)nn2-c1ccccc1
-7% | CCOC(=O)c1sc(NC(=O)CSc2nnc(C(C)C)n2C)nc1C
-5% | Cc1ccc(/C=N/N2CCN(c3ccc(Cl)cc3)CC2)o1
8% | O=C(c1ccc(Cl)cc1)C1CCN(C(=O)C2CC2)CC1
6% | COc1ccc(-c2nn(CCC#N)cc2C(=O)Nc2cccc(C(=O)O)c2)cc1OC
0% | COC(=O)Cn1c(SCCOc2ccccc2OC)nc2ccccc21
-19% | COCc1ccc(C(=O)N2CCc3c([nH]c4ccccc34)C2c2ccccn2)s1 (stereo not given)
8% | COc1cccc(NC(=O)NNC(=O)COc2ccc3ccccc3c2)c1
13% | CCOc1ccc(S(=O)(=O)N2CCCCC2)cc1NC(=O)CN1CCCC1c1cccs1 (stereo not given)
0% | Brc1ccc(-c2ccc(CNCCSc3nnnn3-c3ccccc3)o2)cc1
-11% | Cc1cccc(NCCC(=O)c2ccc(Br)cc2)c1
-17% | CN(Cc1ccon1)C(=O)CC1C(=O)NCCN1Cc1ccc(F)c(F)c1 (stereo not given)
-1% | CCOC(=O)c1cc(CC)sc1NC(=O)COC(=O)c1ccccn1
14% | Cc1ncc(CO)c2c1Oc1nc(-c3ccccc3)nc(SCC(=O)Nc3cccc(O)c3)c1C2
-9% | CCOc1ccccc1NC(=O)N1CCN(Cc2cc(=O)n3nc(-c4ccc(C)cc4)sc3n2)CC1
-7% | COCCN(C(=O)Cc1ccc(S(=O)(=O)N2CCOCC2)s1)c1c(N)n(CC(C)C)c(=O)[nH]c1=O
-12% | CN(CC(=O)N1CCCC1)S(=O)(=O)c1ccc2ccccc2c1
-11% | CC1(C)CC(=O)C2=C(C1)Nc1ccccc1NC2c1ccc2c(c1)OCO2 (stereo not given)
10% | CC(OC(=O)C1CSC2(c3ccc(F)cc3)CCC(=O)N12)C(=O)NC(N)=O (stereo not given)
0% | CC(=O)c1cccc(NC(=O)CSCc2ccc(Br)cc2)c1
4% | Cc1ccc(N(CC(=O)Nc2ccc3c(c2)OCCO3)S(=O)(=O)c2c(C)n[nH]c2C)cc1
-1% | CCc1c(C(=O)N/N=C/c2cn[nH]c2-c2ccc(F)cc2)csc1C
-21% | Nn1c(SCc2cc([N+](=O)[O-])cc3c2OCOC3)nnc1-c1cccnc1
7% | O=C(CSc1nnc(CNC(=O)c2cccs2)o1)Nc1ccccc1C(F)(F)F
-14% | Cc1ccc(-c2csc(NC(=O)CCCc3cccs3)n2)cc1
1% | CN(C)S(=O)(=O)N1CCC(Oc2ccc(C(=O)NC3CCCCC3)cc2)CC1

Next part
VDR inhibitor | smiles
4% | Cc1nc2ncnn2c(C)c1Cc1ccc(Cl)cc1F
1% | CC1=C(C(=O)Nc2ccccc2F)C(c2ccsc2)C2=C(CC(c3ccccc3)CC2=O)N1 (stereo not given)
89µM* | O=c1[nH]c(=S)[nH]c2c1C(c1ccc(Br)cc1)c1c([nH]c(=S)[nH]c1=O)O2
15% | CC(/C=C/c1ccccc1)=N/NC(=O)c1nc2nc(C)cc(C)n2n1
-7% | COc1cccc(CN2CCN(C(=O)c3cc(-c4cccnc4)nc4ccc(C)cc34)CC2)c1
-4% | O=C(Nc1ccc(Cc2ccncc2)cc1)C1CC1
-8% | Cc1ccc(C(=O)Cn2c(=N)n(N)c3ccccc32)cc1
0% | COc1ccc(-c2cc(C)nc3c(-c4ccc(OC)c(OC)c4)c(C)nn23)cc1
13% | CC(=O)c1ccc(S(=O)(=O)N(CC(=O)NC2CC2)Cc2ccc(F)cc2)cc1
-26% | CCOc1ccc(Nc2ccc(S(=O)(=O)N3CCN(C)CC3)cc2[N+](=O)[O-])cc1OCC
11% | Nc1c(N)c2ccccc2oc1=O
-2% | N#CCSc1nnc(SCC#N)s1
-2%&5% | CCN1C(=O)N[C@@H](c2ccc(Br)cc2)C(C(=O)OC)=C1C
3% | NC(=O)N1CCC2(CC1)NC(=O)N(c1ccccc1)N2
-7% | CCCOc1ccc(/C=N/NC(=O)CN(c2ccc(OCC)cc2)S(C)(=O)=O)cc1

In the list so far, 15 have an aryl thioether with sulfur outside any ring.
VDR inhibitor | smiles
2% | CC(C)(C)OC(=O)N[C@@H](Cc1c[nH]c2ccccc12)c1nnc(SCC(N)=O)o1
6% | CSc1ccccc1NC(=O)c1ccc(C)o1
-5% | Cc1nnc2sc(SCC(=O)Nc3ccc(Cl)cc3)nn2c1=O
-15% | Cc1ccc(S[C@@H](CCN2CC[C@H](C)CCC2=O)c2ccccc2)cc1
24% | CC(C)CCSc1nc(N)c(C#N)cc1C#N
8% | CCOC(=O)c1cccnc1SCC(=O)Nc1ccc(C)cc1C
-19% | COc1ccccc1C(=O)NCCn1cc(SCC(=O)NCc2ccco2)c2ccccc21
2% | Cc1ccccc1-n1c(SCc2c(C)noc2C)nnc1-c1c[nH]c2ccccc12
-7% | CCOC(=O)c1sc(NC(=O)CSc2nnc(C(C)C)n2C)nc1C
0% | COC(=O)Cn1c(SCCOc2ccccc2OC)nc2ccccc21
0% | Brc1ccc(-c2ccc(CNCCSc3nnnn3-c3ccccc3)o2)cc1
14% | Cc1ncc(CO)c2c1Oc1nc(-c3ccccc3)nc(SCC(=O)Nc3cccc(O)c3)c1C2
-21% | Nn1c(SCc2cc([N+](=O)[O-])cc3c2OCOC3)nnc1-c1cccnc1
7% | O=C(CSc1nnc(CNC(=O)c2cccs2)o1)Nc1ccccc1C(F)(F)F
-2% | N#CCSc1nnc(SCC#N)s1

Assay outcomes as filed in PubChem BioAssay.
